Screening data (PubChem BioAssay)
RmlCD inh mix = mixture blocks RmlC and RmlD coupled enzyme activity; RmlC/RmlD coupled enzyme inhibition, 384-well mixture HTS; inhibition, % at 5.5 µM; 110,000 compounds, 0.39% hits; AID 1532; in the data active = inhibition above about 30%, passing the limit was not always enough; only retested compounds are shown here; also: strong numbers were not always called active
RmlCD inh mix retest = further read-out of RmlCD inh mix, marked with its call; inhibition, %; measured here: mean retest inhibition;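 single compounds in two wells; values far above 100% likely come from compound fluorescence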
* = called active by the depositor; i = inactive. Some of the compounds tested, so the mix of outcomes need not match the whole.

| Molecule | RmlCD inh mix | RmlCD inh mix retest |
| --- | --- | --- |
| CCCC1(C(=O)OCC)NC(c2ccc(OC)cc2OC)C2C(=O)N(c3ccccc3)C(=O)C21 (stereo not given) | 46.5 | 2.8 |
| O=C(c1ccco1)N1CCN(C(=O)c2cc3c(s2)-c2ccccc2OC3)CC1 | 46.4* | 65.6* |
| CCOCC(=O)Nc1ccc(-c2cn3cccnc3n2)cc1 | 105.9* | 131.0* |
| COCCn1c(=S)[nH]c2cc(C(=O)NCC3CCCO3)ccc2c1=O (stereo not given) | 55.9 | 4.1 |
| CCc1c(C)c2cc(Cl)c(O)c(CN3CCCCC3)c2oc1=O | 114.1 | 59.3 |
| Cc1cc(C)c(C#N)c(SCC(=O)CC(=O)OC(C)C)n1 | 55.5* | 51.6* |
| CCOc1ccc(CCNC(=O)c2cccc(N3CCCC3=O)c2)cc1OCC | 100.0 | -3.6 |
| CCCCOc1ccc(S(=O)(=O)n2c(C)nc3ccccc32)cc1 | 46.5 | 7.6 |
| Cc1cc2c(C)c(C)c(=O)[nH]c2cc1N | 45.2* | 142.3* |
| Cn1c(=O)c2cc(S(=O)(=O)NCCC(=O)NCc3ccccc3Cl)ccc2n(C)c1=O | 162.2 | 9.3 |
| COc1cccc(NC(=O)c2ccccc2-c2nc(-c3cccc(C)c3)no2)c1 | 45.2 | -9.2 |
| CCCCSc1nc(C)[nH]c1[N+](=O)[O-] | 48.8 | 0.4 |
| COc1cccc(OC)c1C(=O)NCCN1CCN(C(=O)c2c(OC)cccc2OC)CC1 | 74.0 | 8.5 |
| CSC1CCCCC1(O)CSc1nc2c(cc1C#N)CCCC2 (stereo not given) | 38.0 | 6.8 |
| O=C(Cn1nnc(-c2ccccc2F)n1)Nc1cccc2ncccc12 | i | -15.1 |
| FC(F)(F)c1nc(-c2cccs2)ncc1-c1nnnn1-c1ccc(Cl)cc1 | 54.6 | -9.4 |
| COc1ccc(-c2noc(-c3ccc(Cl)cc3)n2)cc1 | 38.4 | 4.1 |
| C#CCn1c(S(=O)(=O)Cc2ccc(OC)cc2)nc(-c2ccccc2)c1-c1ccccc1 | 58.7 | -10.0 |
| CC1CCCCN1CC(=O)Nc1ccc(Oc2ccccc2)cc1 (stereo not given) | 47.4 | 4.5 |
| C=COCCNC(=O)C(=O)NCC(C)C | 42.0 | 2.1 |
| COC(=O)CCC(=O)Nc1ccc(S(=O)(=O)N2CCCCCC2)cc1 | 144.7 | -19.1 |
| CCc1c(C)[nH]c2ccccc2c1=O | 110.2 | 8.6 |
| C=CCn1c(SCC(=O)Nc2ccccc2OC)nnc1-c1ccco1 | 30.4 | -9.5 |
| Cc1ccc2cc(C#N)c(N3CCCN(S(=O)(=O)c4ccccc4)CC3)nc2c1C | 35.6 | -29.3 |
| O=C(C1CCCCC1)N(Cc1nc2sc3c(c2c(=O)[nH]1)CCCC3)Cc1cccs1 | 47.5 | -0.7 |
| Cn1nccc1C(=O)N1CCN(c2ccc(F)cc2)CC1 | 100.0 | -7.5 |
| CCN1CCN(Cc2c(O)ccc3c(=O)c(-c4ccccc4OC)coc23)CC1 | 71.7 | 22.5 |
| O=C1CC(c2ccc3c(c2)OCO3)Sc2nc3ccccc3n21 (stereo not given) | 186.0 | -9.6 |
| O=c1[nH]c(SCc2n[nH]c(=S)n2-c2ccccc2)nc2ccccc12 | 31.7 | 5.2 |
| O=C(c1ccc(F)cc1)c1ccc(N2CCCC2)cc1 | 30.2 | -21.0 |

Whole records from above. Order of values: RmlCD inh mix | RmlCD inh mix retest
Listed for COC(=O)CCC(=O)Nc1ccc(S(=O)(=O)N2CCCCCC2)cc1 → 144.7 | -19.1
Listed for Cc1ccc2cc(C#N)c(N3CCCN(S(=O)(=O)c4ccccc4)CC3)nc2c1C → 35.6 | -29.3
Listed for Cc1cc(C)c(C#N)c(SCC(=O)CC(=O)OC(C)C)n1 → 55.5* | 51.6*
Listed for C#CCn1c(S(=O)(=O)Cc2ccc(OC)cc2)nc(-c2ccccc2)c1-c1ccccc1 → 58.7 | -10.0
Listed for COCCn1c(=S)[nH]c2cc(C(=O)NCC3CCCO3)ccc2c1=O (stereo not given) → 55.9 | 4.1

An excerpt from above in order of length of the SMILES, high to low.
| Molecule | RmlCD inh mix | RmlCD inh mix retest |
| --- | --- | --- |
| COc1cccc(NC(=O)c2ccccc2-c2nc(-c3cccc(C)c3)no2)c1 | 45.2 | -9.2 |
| Cc1cc(C)c(C#N)c(SCC(=O)CC(=O)OC(C)C)n1 | 55.5* | 51.6* |
| Cn1nccc1C(=O)N1CCN(c2ccc(F)cc2)CC1 | 100.0 | -7.5 |

New compounds follow:
| Molecule | RmlCD inh mix | RmlCD inh mix retest |
| --- | --- | --- |
| COc1ccc2cc(CN(C(=O)Nc3ccccc3OC)C3CCCC3)c(=O)[nH]c2c1 | 51.6 | 1.2 |
| COC(=O)CSc1nnc(CNc2ccc(OC)cc2)n1C | 60.5 | -1.9 |
| CC1=C(C#N)C(c2cccnc2)C2=C(CCCC2=O)N1 (stereo not given) | 32.1* | 32.8* |
| COc1cc2c(cc1OC)-c1cc(OCc3cccnc3)nc(=O)n1CC2 | 115.4* | 199.1* |
| COCc1cc(=O)[nH]c2cc(NC(=O)C(F)(F)F)c(C)cc12 | 39.2* | 46.2* |
| Brc1ccc(N=C/C=C/C=C/Nc2ccc(Br)cc2)cc1 | 131.5 | -13.7 |
| COC(=O)c1ccc(CN2C(=O)NC3(CCCCC3C)C2=O)o1 (stereo not given) | i | 3.3 |
| COCCn1nnnc1C(c1cccs1)N1CCN(c2cccc(C(F)(F)F)c2)CC1 (stereo not given) | 45.5 | 5.6 |
| Cc1cc(=O)oc2c(CN3CCC(C)CC3)c(O)c(Cl)cc12 | 148.6* | 122.0* |
| COC(=O)Cc1c(C)c2c(OCc3nn[nH]n3)cc(C)cc2oc1=O | 37.7* | 36.1* |
| C#CCNC(=O)C1=C[C@@H](c2ccc3c(c2)OCO3)C[C@@H](OCc2ccc(CO)cc2)O1 | 59.7 | -4.2 |
| O=C(CSc1ncn(-c2ccccc2)n1)Nc1ccc2c(c1)OCO2 | 61.8 | -4.7 |
| Cc1ccc(NCc2nnc(SCC(=O)Nc3ncc(C)s3)n2CC2CCCO2)c(C)c1 (stereo not given) | 61.2 | 1.3 |
| COc1ccc(-c2cc3nc[nH]c(=O)c3s2)cc1 | 50.9* | 138.0* |
| O=C(Cn1cnc2ccccc2c1=O)OCCCCN1C(=O)c2ccccc2C1=O | 43.6 | 3.6 |
| O=C(CCCn1c(=O)[nH]c2ccsc2c1=O)N1CCN(c2ccccn2)CC1 | 70.0* | 68.6* |
| CCOC(=O)N1CCN(C(=O)c2cnn3c(C(F)F)cc(-c4ccc(C)cc4)nc23)CC1 | 42.7 | -3.5 |
| O=C(NCCCN1CCCC1=O)c1ccccc1NS(=O)(=O)c1ccc(Br)cc1 | 60.5 | -9.0 |
| COc1ccc(CNC(=O)c2cc(-c3ccc(OC)c(OC)c3)on2)cc1 | i | 0.7 |
| CCCC(=O)Nc1ccc2oc(-c3cccnc3)nc2c1 | 37.5 | 22.1 |
| COc1ccc(NC(=S)NCCSc2ccc(C)cc2)c(OC)c1 | i | 20.8 |
| CN(C[C@H](Cc1ccccc1)N(C[C@@H](CC1CCCCC1)N(CCc1ccccc1)N=O)N=O)N=O | 150.5 | 13.5 |
| CC(C)C1C(C#N)=C(N)SC(N)=C1C#N | 130.9 | -9.2 |
| Cc1ccc(SCCC(=O)N2CCC(C)CC2)cc1 | 61.1 | -9.8 |
| CC(Sc1nnc(COc2ccc3ccccc3c2)n1C)C(=O)O (stereo not given) | 31.5 | -4.9 |
| CCn1c2ccccc2c2cc(NC(=S)N3CCOCC3)ccc21 | 57.9 | -4.4 |
| C=CCn1c(=S)[nH]c2ccccc2c1=O | i | -13.5 |
| COc1ccccc1NC(=O)N1CCCC(c2nc3c(nnn3Cc3ccc(C)cc3)c(=O)[nH]2)C1 (stereo not given) | 85.7 | 1.9 |
| CC1CCCN(C(=O)CSc2cnc3ccccc3n2)C1 (stereo not given) | 79.1 | 1.5 |
| CCC(C)N(C)Cc1cccc(C2(O)CCN(S(=O)(=O)c3ccc(F)cc3)CC2)c1 (stereo not given) | 42.3 | 6.0 |

Additional compounds follow:
| Molecule | RmlCD inh mix | RmlCD inh mix retest |
| --- | --- | --- |
| COc1ccccc1N1CCN(S(=O)(=O)c2ccc3c4c(cccc24)C(=O)N3)CC1 | 73.2 | -0.5 |
| Nc1ccc2c3c(cccc13)CC2 | 52.7 | -21.3 |
| O=C(O)CN1C(=O)CNC1=O | i | 9.8 |
| Nc1nc(Nc2ccc(Cl)cc2Cl)nc(C(F)(F)F)n1 | 110.2 | -8.7 |
| CC(=O)c1sc2nc(-c3cccs3)ccc2c1N | 85.0 | 29.2 |
| O=C(NC1CCCCCC1)c1cc2n(n1)C(C(F)(F)F)CC(c1ccco1)N2 (stereo not given) | 40.6 | -10.1 |
| Cc1ccc(-c2nc3ncccn3c2NC2CCCC2)o1 | 30.7 | -12.1 |
| CN(C)S(=O)(=O)c1cccc(-c2nnc(SCc3ccc4c(c3)OCCO4)o2)c1 | 49.4 | 5.5 |
| c1ccc(-n2ncc3c(N4CCCCC4)ncnc32)cc1 | 74.6 | -17.9 |
| COC(=O)CN(c1ccccn1)S(=O)(=O)c1ccccc1 | 58.9 | 1.8 |
| CCCc1cc(=O)oc2c(CN3CCN(C)CC3)c(O)c(Cl)cc12 | 71.3* | 117.0* |
| CCOC(=O)CC(N)c1ccc(OC)cc1 (stereo not given) | 45.8 | -7.1 |
| COc1ccc(Cc2nn3c(Cn4nnc5ccccc54)nnc3s2)cc1 | 109.7 | -1.5 |
| CC(C)C[C@H](NC(=O)c1[nH]cnc1C(=O)Nc1ccc(CNC(=O)OC(C)(C)C)cc1)C(=O)OC(C)(C)C | 55.5 | 3.3 |
| Cc1noc2ncnc(Sc3ccccc3Cl)c12 | 42.0 | -8.8 |
| Cc1oc2c(CN3CCOCC3)c(O)ccc2c(=O)c1-c1ccccc1 | 38.6* | 53.9* |
| O=C1CCCN1C(=O)c1cncc(Br)c1 | 84.7 | 7.0 |
| NS(=O)(=O)c1ccc(NC(=O)C2COc3ccccc3O2)cc1 (stereo not given) | 110.3 | -15.4 |
| FC(F)(F)c1nnc(-c2ccccc2)nc1N1CCOCC1 | 113.3 | 3.0 |
| CC(=O)N1CCc2cc(S(=O)(=O)N3c4ccccc4CC3C)ccc21 (stereo not given) | 32.7 | 6.9 |
| CCc1cc(=O)oc2c(CN3CCN(C)CC3)c(O)c(Cl)cc12 | 125.9* | 194.0* |
| Cc1ccc(-c2nnc(N3CCN(C(=O)COc4ccccc4)CC3)c3ccccc23)cc1 | 104.0 | 4.3 |
| O=C(CSc1nc2cccnc2n1Cc1ccccc1)NCc1ccco1 | 42.2 | -6.6 |
| Cc1ccc(C)c(S(=O)(=O)N2CCN(C(=O)c3cnccn3)CC2)c1 | 115.1 | -10.3 |
| Cc1cccc(OCCCCCn2ccnc2)c1C | 164.8 | -12.8 |
| CCOC(=O)C1CCN(Cc2ccc(C(=O)OC)cc2)CC1 | 82.4 | -3.2 |
| CC(=Nc1ccc(C)c(C)c1)C1=C(O)CCC1=O | 51.0 | -8.6 |
| COc1ccc(CN(C(=O)c2cccs2)c2nccs2)cc1OC | 96.4 | 3.5 |
| CCN(CC(=O)NCCc1ccccc1)S(=O)(=O)c1ccc(Br)cc1 | 31.5 | -2.4 |
| Cc1ccccc1C(=O)NC1CCN(Cc2nnnn2C2CCCC2)CC1 | 69.3 | 3.2 |

Later entries.
| Molecule | RmlCD inh mix | RmlCD inh mix retest |
| --- | --- | --- |
| CC(C)(C)Cc1nnc(NS(C)(=O)=O)s1 | 33.6 | 9.5 |
| C=CCn1c2ccccc2c2nnc(SCN3C(=O)c4ccccc4C3=O)nc21 | 49.6* | 44.0* |
| COc1ccc(C(C)NC(=O)c2ccoc2C)cc1OC (stereo not given) | 72.9 | 8.5 |
| CC(=O)Nc1ccc(-c2cn3cccnc3n2)cc1 | 102.5* | 156.2* |
| COCCNC(=O)c1cnn2c1NC(c1ccco1)CC2C(F)(F)F (stereo not given) | 69.0 | -1.3 |
| O=C(C1=C[C@@H](c2csc3ccccc23)C[C@@H](OCc2ccc(CO)cc2)O1)N1CCN(Cc2ccccc2)CC1 | 98.9 | -12.0 |
| COC(=O)c1nc(NC(C)=O)n[nH]1 | 31.5 | -11.1 |
| CCCn1c(N2CCN(CC(=O)NCc3cccs3)CC2)nc2ccccc21 | 43.3 | 5.8 |
| CCSc1nc2c(c(=O)[nH]1)C(c1ccccn1)C1=C(CC(C)(C)CC1=O)N2 (stereo not given) | 31.9 | 34.3 |
| CC(C)[C@H](NC(=O)NCc1cccs1)C(=O)O | 148.9 | -3.4 |
| CN(C)S(=O)(=O)c1ccc(NC(=O)c2cc3ccccc3o2)cc1 | 41.9 | -3.6 |
| COCCn1c(-c2ccc(OC)cc2)cnc1N | 144.7 | -8.6 |
